Bioassay records as filed in PubChem BioAssay.
GLA inh pH 4.5: alpha-galactosidase A (human) inhibition, pH 4.5 | purified enzyme, 4-MU-alpha-Gal fluorescence, pH 4.5 | activity change, negative = inhibition, % at 105 µM | 230,000 tested, under 10 active; inconclusive = small, poorly fitted or top-dose-only inhibition, or a rising curve; inactive = flat fitted curve, though single readings scatter; no compound was filed as active;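 further: 0% = full activity with enzyme and -100% = basal without enzyme; dose as in the result columns while the protocol names 77 µM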
Rango complex inh: prevents formation of the Rango-importin beta complex; Rango CFP/YFP FRET sensor + importin beta, 45 min; Potency, µM (top dose mostly 92.2 µM), for the others: at the top dose inhibition of complex formation; hit rate 0.031% among 340,000; AID 540263; active = rising FRET ratio curve, often small or poorly fitted; inconclusive = mostly compound fluorescence or quenching in the first reads; inactive = flat curves in all reads;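 further: potency means the concentration at half of the fitted maximal effect; 0% = DMSO wells and 100% = buffer wells lacking importin beta; nearly all actives have a fitted effect of over 15% in size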
Target sequence (Q14974 whole entry, looked up): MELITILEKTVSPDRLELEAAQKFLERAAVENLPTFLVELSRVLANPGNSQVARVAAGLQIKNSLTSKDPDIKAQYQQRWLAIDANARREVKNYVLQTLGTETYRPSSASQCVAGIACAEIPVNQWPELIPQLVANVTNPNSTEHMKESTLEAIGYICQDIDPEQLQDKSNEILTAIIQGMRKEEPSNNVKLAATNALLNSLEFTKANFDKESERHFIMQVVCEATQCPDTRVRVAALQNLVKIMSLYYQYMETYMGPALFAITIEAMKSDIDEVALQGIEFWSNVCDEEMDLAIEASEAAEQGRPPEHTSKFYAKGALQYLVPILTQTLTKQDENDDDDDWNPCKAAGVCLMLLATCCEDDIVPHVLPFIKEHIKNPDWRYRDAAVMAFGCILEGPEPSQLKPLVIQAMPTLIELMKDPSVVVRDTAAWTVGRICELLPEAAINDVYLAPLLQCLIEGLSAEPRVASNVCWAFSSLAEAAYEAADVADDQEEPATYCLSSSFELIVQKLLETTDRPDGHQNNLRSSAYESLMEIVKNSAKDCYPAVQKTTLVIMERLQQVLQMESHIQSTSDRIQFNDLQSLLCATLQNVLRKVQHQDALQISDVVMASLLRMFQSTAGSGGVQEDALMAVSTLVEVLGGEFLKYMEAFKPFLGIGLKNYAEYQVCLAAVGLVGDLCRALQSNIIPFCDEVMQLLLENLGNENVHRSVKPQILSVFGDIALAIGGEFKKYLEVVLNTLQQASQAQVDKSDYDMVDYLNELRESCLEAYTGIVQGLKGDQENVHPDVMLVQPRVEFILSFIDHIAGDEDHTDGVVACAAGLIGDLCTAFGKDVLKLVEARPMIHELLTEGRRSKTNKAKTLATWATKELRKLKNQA
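Inhibition scored from the CFP 486 nm/YFP 530 nm FRET ratio 45 min after adding 0.125 microM importin beta to 50 nM Rango biosensor preincubated 5 min with compound (room temperature, PBS with DTT, Tween-20, BSA). No-importin wells as positive control.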
miR-21 reporter: raises the signal of a miR-21 reporter. Potency, µM (series often up to 38.3 µM), for the others: at the highest dose reporter change, positive = more light. AID 2288. 340,000 tested, under 10 active. HeLa miR-21 FLuc reporter, luciferase, 48 h; active = well fitted rising curve with a large enough effect; inconclusive = small, poorly fitted or top-dose-only effect; inactive = no such curve, though single readings can be large or run the other way;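 further: % of control where 0% means no effect; miR-21 action dims this reporter so a rising signal means less miR-21 action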
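HeLa cells stably expressing CMV-driven firefly luciferase with a downstream miR-21 binding sequence, endogenously expressing miR-21, were treated with titrations (up to about 40uM final) for 48 hours at 37 degree Celsius. Luciferase luminescence was read after lysis.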
Rango dissoc inh: inhibitors of RanGTP-induced Rango-importin beta complex dissociation; O95149+P62826; Biochemical FRET Rango-importin beta, RanGTP-induced dissociation; Potency, µM (titrated, usually from 46.1 µM), inactives show top-dose activity change, negative = inhibition; hit rate 0.071% among 340,000; AID 540253; active means falling FRET ratio curve, often poorly fitted, with flat reads before Ran was added; inconclusive means other falling curves, or compound fluorescence or quenching; inactive means flat or rising ratio curve;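 further: potency means the concentration at half of the fitted maximal effect; % of control where 0% means no effect; nearly all actives have a fitted effect of over 45% in size; -100% = wells without RanGTP and RCC1; the record marks most hits as doubtful in a second field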
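Compounds preincubate 5 min with complex of recombinant Rango and importin beta in PBS with 1 mM DTT. Ran (0.6 uM) loaded with 2 mM GTP plus 0.2 uM RCC1 starts dissociation; FRET is recorded 45 min later.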
Starred values were filed as active, the others as inactive; ? = inconclusive; / = no result given; & = joins results of further samples. Only part of the results is shown (hit frequency here may not be typical).

miR-21 reporter | Rango dissoc inh | Rango complex inh | mol | GLA inh pH 4.5
1% | 1% | 8.1% | COc1ccc(C(=O)N/C(=C/c2cccnc2)C(=O)N2CCCCCC2)cc1OC | /
1% | -10% | 1.5% | CCOC(=O)C1C(=O)OC(C)(C)C1C(CC)C(=O)c1ccccc1 (centres undefined) | 1
0% | -4% | 0.2% | Cc1nc2scc(-c3ccccc3)c2c(=O)o1 | -3
/ | -18% | -2.8% | O=C1NC[C@H](Cc2ccccc2)N(CC2CCN(CCc3ccc(-c4ccccc4)cc3)CC2)C1=O | /
1% | 11% | 6.8% | O=C(Nc1cccc(C(=O)Nc2ccccc2F)c1)c1ccccc1 | /
-4% | / | / | NN=C1c2cc([N+](=O)[O-])ccc2-c2ccc([N+](=O)[O-])cc21 | 1
-2% | 2% | -1.7% | CN1CCN(S(=O)(=O)c2ccc3c(c2)oc(=O)n3C)CC1 | /
0% | 4% | 4.3% | Cc1scc(-c2n[nH]c(=S)n2Cc2ccccc2)c1C | -1
0% | 31% | -0.5% | COc1ccc(/C=C(\NC(=O)c2ccccc2)C(=O)N2CCN(C)CC2)cc1OC | /
-8% | -10% | 0.3% | CCOC(=O)C1=C(CN2CCN(C(=O)c3ccco3)CC2)NC(=O)NC1c1ccc(F)cc1 (centres undefined) | /
6% | -6% | -2.0% | Cc1c(OC(C)C(=O)NCC(O)c2ccccc2)ccc2c3c(c(=O)oc12)CCC3 (centres undefined) | /
1% | 11% | 1.3% | COc1ccccc1CNc1ccccc1F | 1
-4% | -8% | 2.9% | COCC(=O)NCCc1nc2ccccc2[nH]1 | 7
/ | -10% | -1.9% | CC1(C)O[C@@H]2C[C@H]3[C@@H]4CCC5=CC(=O)CC[C@]5(C)[C@@]4(F)[C@@H](O)C[C@]3(C)[C@]2(C(=O)CCl)O1 | /
-5% | 13% | -1.0% | CCOc1ccc(NC(=O)C2CCN(S(=O)(=O)c3ccc4c(c3)C(C)(C)C(=O)N4C)CC2)cc1 | /
-24% | -4% | -2.1% | Cc1noc(C)c1C(=O)Nc1ccc2c(c1)CCC2 | 0
/ | 12% | -1.1% | Cn1nc(C(=O)NNC(=O)c2cccc(Cl)c2)c2ccccc2c1=O | /
-5% | -7% | 0.0% | Cc1noc(C)c1COC(=O)[C@H](C)NS(=O)(=O)c1ccc(Cl)c(Cl)c1 | 3
/ | 6% | -0.1% | CCOC(=O)N1CCN(S(=O)(=O)c2ccc(C(=O)N(CCCN(C)C)c3nc4c(C)c(C)ccc4s3)cc2)CC1 | /
/ | -1% | 0.1% | O=C(NCc1cccc(Br)c1)C1CC2Cn3c(nc4ccccc43)C2N1Cc1ccccc1 (centres undefined) | /
-1% | -11% | 0.9% | O=C(Oc1cccnc1)c1ccc([N+](=O)[O-])cc1 | 0
-4% | -7% | -1.1% | O=C(CN1CCC(NC(=O)Cc2ccccc2)CC1)Nc1cccc2ccccc12 | -5
-10% | -17% | ? | N#CC(C#N)=Cc1cc2ccccc2nc1N1CCCCC1 | 2
-3% | -3% | ? | COc1ccc(-c2csc3ncn(Cc4ccccc4)c(=O)c23)cc1 | /
0% | 21% | 5.7% | O=C(NCCCN1CCOCC1)C(=O)NCC1OCCN1S(=O)(=O)c1ccc(Br)cc1 (centres undefined) | /

Nothing new here: an excerpt of the list.
miR-21 reporter | Rango dissoc inh | Rango complex inh | mol | GLA inh pH 4.5
-3% | -3% | ? | COc1ccc(-c2csc3ncn(Cc4ccccc4)c(=O)c23)cc1 | /
0% | 21% | 5.7% | O=C(NCCCN1CCOCC1)C(=O)NCC1OCCN1S(=O)(=O)c1ccc(Br)cc1 (centres undefined) | /

The list continues.
miR-21 reporter | Rango dissoc inh | Rango complex inh | mol | GLA inh pH 4.5
/ | -9% | -0.4% | COc1cc(SC)ccc1C(=O)NNC(=O)C1COc2ccccc2O1 (centres undefined) | /
9% | -4% | -3.6% | Cc1cc(C)nc(SC2CC(=O)N(c3ccc(C)c(C)c3)C2=O)n1 (centres undefined) | /
5% | -16% | 6.0% | CCOC(=O)CN(C(=O)c1ccccc1[N+](=O)[O-])C(C)(C)C | 12
/ | -18% | -0.7% | COc1ccc(CNC(=O)COC(=O)c2ccc(C)c(S(=O)(=O)N3CCOCC3)c2)cc1OC | /
-5% | 28% | -3.3% | CCCOc1ccc2nc(C)c(CCC)c(SC(=N)N)c2c1 | -6
/ | 0% | 0.6% | Cc1c(C(=O)N2CCc3ccccc3C2)oc2ccc(Br)cc12 | /
-4% | 13% | 3.4% | Cc1ccccc1CNC(=O)CCn1nc(C)c2c(C)n(-c3ccccc3)nc2c1=O | /
-37% | 7% | 0.4% | COc1ccc2c(c1)nc(SCC(=O)c1cccs1)n2C | -7
-23% | -8% | ? | CN1CCN(CCCNC(=O)c2ccc(/C=C3\Oc4ccccc4N(Cc4ccccc4F)C3=O)cc2)CC1 | /
/ | 1% | 2.5% | CC(C)CC1Nc2ncnc(N3CCCCC3)c2N(Cc2ccc(Br)cc2)C1=O (centres undefined) | /
/ | 1% | -4.3% | Cc1ccccc1NC(=O)COC(=O)C1CC2CCCC(C1)C2=O (centres undefined) | /
0% | 7% | -0.7% | Cc1cc2ccccn2c1C(=O)c1cccc([N+](=O)[O-])c1 | 3
7% | 11% | -0.8% | CC[n+]1ccc(C)c2cc(SC(F)(F)F)ccc21 | 2
/ | -6% | 4.9% | CC(=O)C1CCC2C3CCC4=CC(=O)C=CC4(C)C3C(=O)CC12C (centres undefined) | /
0% | 1% | 0.3% | O=C(O)c1ccccc1C(=O)Nc1ccc(-n2ccc(C(F)(F)F)n2)cc1 | 0
/ | 0% | -0.2% | CCN1CCN(c2ccc(Cl)cc2NC(=O)c2ccc(-n3nc(C)cc3C)cc2)CC1 | /
0% | -27% | ? | Cc1nc2ccccc2nc1CN1CCC(CO)(CC2CCCCO2)CC1 (centres undefined) | -2
4% | 0% | -2.7% | Cc1ccc(OCC(=O)Nc2ccc(N3CCOCC3)cc2)c([N+](=O)[O-])n1 | 8
0% | -18% | ? | CCOc1ccc(S(=O)(=O)NCc2cccnc2)cc1 | /
-7% | 1% | 3.1% | Cc1c(NC(=O)C(C)Oc2ncnc3ccccc23)c(=O)n(-c2ccccc2)n1C (centres undefined) | 4
-2% | 0% | -0.4% | CC(C)N(Cc1nc(-c2ccccc2)no1)C(=O)CCCN1C(=O)c2ccccc2C1=O | -1
/ | 4% | -5.6% | O=C1C=C(c2ccc(Cl)c(C(F)(F)F)c2)C[C@@H](c2ccc3c(c2)OCO3)C1 | /
14% | 13% | ? | Cc1cc2c(NC3CCCCC3)ncnc2s1 | /
15% | -19% | -0.2% | C=CCC1C=CCC(CC=C)N1C(=O)c1ccccc1[N+](=O)[O-] (centres undefined) | 4
-6% | 1% | 0.0% | CC1(C)C(CO)=CC(=O)C2=C1SCC(=O)N2 | -10
20% | 16% | -3.1% | COc1ccc(NS(=O)(=O)c2ccc(N3CCCC3=O)cc2)cn1 | 5
-17% | -13% | ? | Cc1cccc2c1-c1sc(C(=O)N3CCc4ccccc4C3)cc1CO2 | 10
-2% | -3% | -0.1% | Cc1csc2ncc(C(=O)NCc3ccccc3Cl)c(=O)n12 | 6
/ | 15% | 0.0% | CCc1ccc(CN(C)C(C)C(=O)Nc2ccc(S(=O)(=O)N3CCCC3)cc2)cc1 (centres undefined) | /
10% | 10% | 1.3% | C=CCn1c(COc2ccc(Cl)cc2)nnc1SCC(=O)N1CC(=O)Nc2ccccc21 | -20
-3% | -5% | -0.6% | Cc1ccc(-c2nnn(CC(=O)N(c3ccccc3)C(C(=O)NC3CCCC3)c3ccco3)n2)o1 (centres undefined) | 1
-59% | 6% | 5.2% | Cc1ccc2nc(SC(C)C(=O)N3CCCC3)[nH]c2c1 (centres undefined) | ?
0% | 9% | 2.4% | COc1ccc([C@@H]2C[C@@H](c3ccccc3)Oc3cc(C)cc(C)c32)cc1 | 4
1% | -7% | -1.2% | CCCCOCC(O)CCc1n[nH]c(=S)n1-c1ccccc1 (centres undefined) | 7
-4% | 1% | -0.5% | COC(=O)c1ccc(NC(=S)NCCCN2CCCC2=O)cc1 | -19
0% | -26% | 3.6% | COc1cccc(-n2nnc3c(=O)n(CC(=O)Nc4ccc(C)cc4)cnc32)c1 | 1
-4% | 12% | -0.8% | O=C(CCC(=O)OCC(F)(F)C(F)F)Nc1ccc(F)cc1F | -11
-5% | 1% | 0.6% | CCc1ccc(NC(=O)NNC(=O)CCc2ccccc2)cc1 | /
2% | ? | 1.6% | COc1ccccc1/C=C1\SC(=O)N(CC(=O)NCCCn2ccnc2)C1=O | /
-49% | 15% | -1.1% | O=C(NC(=S)Nc1cccnc1Cl)c1ccc(F)cc1 | /
-15% | 5% | 2.8% | O=C(NNC1=C(C(=O)C(F)(F)F)CCC1)c1cccnc1 | 7
-10% | 14% | 1.5% | COc1ccc(C(=O)C2CCCN(C(=O)CCc3ccccn3)C2)c(C)c1 (centres undefined) | -9
5% | ? | -3.3% | Cc1ccc(S(=O)(=O)CCC(=O)Nc2ccc(Br)cc2)cc1 | /
/ | 15% | -1.3% | CN(C)CCCNc1oc(-c2ccccc2Cl)nc1S(=O)(=O)c1ccccc1 | /
-1% | / | / | CC(C)c1ccccc1NC(=O)c1ccc(CN(c2ccccc2)S(=O)(=O)c2ccccc2)cc1 | -1
22% | 12% | 0.0% | O=C(Nc1ncccn1)c1ccc(Cl)c([N+](=O)[O-])c1 | /
/ | 0% | 1.1% | Cc1cc(N)ncc1[N+](=O)[O-] | /
/ | 45% | 3.3% | O=C(COC(=O)c1ccc(F)cc1Cl)Nc1cccc(S(=O)(=O)N2CCOCC2)c1 | /
3% | 21% | 0.5% | COc1ccc(C(=O)/C=C/c2cccc(OCc3ccccc3)c2)cc1CSCC(=O)O | /
-16% | -1% | -1.0% | Cc1c(CC(=O)NCCCO)c(=O)oc2cc3c(cc12)CCC(C)(C)O3 | /

2 entries drawn at random from those above:
miR-21 reporter | Rango dissoc inh | Rango complex inh | mol | GLA inh pH 4.5
10% | 10% | 1.3% | C=CCn1c(COc2ccc(Cl)cc2)nnc1SCC(=O)N1CC(=O)Nc2ccccc21 | -20
2% | ? | 1.6% | COc1ccccc1/C=C1\SC(=O)N(CC(=O)NCCCn2ccnc2)C1=O | /

Next part
miR-21 reporter | Rango dissoc inh | Rango complex inh | mol | GLA inh pH 4.5
-8% | -11% | -1.6% | CCc1ccc(N/C(=N/c2nc(C)cc(C)n2)NC(C)=O)cc1 | /
-2% | -2% | 0.7% | O=C(CCc1ccc(S(=O)(=O)N2CCOCC2)cc1)N1CCCC1 | 6
14% | ? | ? | CCOCCCNC(=S)NCCCNc1nc2c(C)c(C)ccc2cc1C#N | 1
0% | 8% | -6.9% | CCN(CC)NC(=S)Nc1ccccc1 | -12
-27% | 1% | -4.1% | Cc1cc(-n2cnc(-c3cn(C)nc3C)n2)no1 | -7
/ | 9% | 3.1% | Cc1cccc(C(=O)NCC(=O)N2CCN(S(=O)(=O)c3ccc4c(c3)OCCO4)CC2)c1 | /
-23% | -2% | 7.6% | c1cc(Nc2cccc3nccnc23)c2nccnc2c1 | -2
-19% | -10% | -8.6% | CCc1nc2ccccc2c(C(=O)Oc2cccc3cccnc23)c1C | -3
23% | -1% | 0.2% | C/C=C(\CS(=O)(=O)c1ccccc1)S(=O)(=O)c1ccccc1 | -2
-19%&-16% | -6% | -2.7% | CC1=Nc2cc(C(=O)N3CCCCC3)ccc2Sc2ccc(C)cc21 | /
-4% | -7% | -2.6% | CCNc1nc(SCCOc2ccc(C)cc2)nc(N(C)C)n1 | ?
-5% | -10% | -2.6% | CCOC(=O)N1CCN(S(=O)(=O)c2ccc(C)c([N+](=O)[O-])c2)CC1 | 4
-8% | ? | ? | CC1(C)Cc2c(c(-c3ccccc3)[nH]c(=O)c2C#N)CS1 | 13
-5% | -16% | 0.4% | O=C(Cc1ccc([N+](=O)[O-])cc1)Nc1ccc2c(c1)OCO2 | -1
-7% | -8% | -0.4% | Cc1csc(NC(=O)c2ccco2)c1C(=O)c1ccccc1 | -1
1% | 2% | 4.3% | Cc1cc(N(C)C)c(C#N)c(=O)[nH]1 | 3
